Screens (PubChem)
Rango-impB inh – inhibitors of Rango-importin beta complex formation; Q14974; AID 540263; Potency, µM (doses to about 92.2 µM), inactives show top-dose inhibition of complex formation; 340,000 tested, 0.031% active; Rango CFP/YFP FRET sensor + importin beta, 45 min; active = rising FRET ratio curve, often small or poorly fitted; inconclusive = mostly compound fluorescence or quenching in the first reads; inactive = flat curves in all reads;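 further: potency means the concentration at half of the fitted maximal effect; 0% = DMSO wells and 100% = buffer wells lacking importin beta; nearly all actives have a fitted effect of over 15% in size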
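Inhibition scored from the CFP 486 nm/YFP 530 nm FRET ratio 45 min after adding 0.125 microM importin beta to 50 nM Rango biosensor preincubated 5 min with compound (room temperature, PBS with DTT, Tween-20, BSA). No-importin wells as positive control.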
GLA inh pH 4.5 – alpha-galactosidase A (human) inhibition, pH 4.5; AID 1467; 230,000 tested, under 10 active; activity change, negative = inhibition, % at 105 µM; purified enzyme, 4-MU-alpha-Gal fluorescence, pH 4.5; inconclusive = small, poorly fitted or top-dose-only inhibition, or a rising curve; inactive = flat fitted curve, though single readings scatter; no compound was filed as active;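 further: 0% = full activity with enzyme and -100% = basal without enzyme; dose as in the result columns while the protocol names 77 µM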
Target sequence (P06280 whole entry, looked up): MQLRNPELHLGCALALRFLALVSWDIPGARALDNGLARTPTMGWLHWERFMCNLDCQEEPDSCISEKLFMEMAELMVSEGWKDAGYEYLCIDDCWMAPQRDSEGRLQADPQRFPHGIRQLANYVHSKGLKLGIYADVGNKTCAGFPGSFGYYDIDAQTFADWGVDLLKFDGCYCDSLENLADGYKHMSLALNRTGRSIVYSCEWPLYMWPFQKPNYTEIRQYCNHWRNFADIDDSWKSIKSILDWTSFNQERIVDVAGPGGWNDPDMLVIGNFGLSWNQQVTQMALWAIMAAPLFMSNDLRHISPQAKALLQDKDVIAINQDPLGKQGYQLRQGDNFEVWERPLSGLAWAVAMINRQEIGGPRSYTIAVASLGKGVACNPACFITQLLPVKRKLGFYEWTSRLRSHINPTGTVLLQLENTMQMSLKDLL
miR-21 reporter – miR-21 reporter, rising signal; Potency, µM (highest dose often 38.3 µM), for the others: top-dose reporter change, positive = more light; 340,000 tested, under 10 active; AID 2288; HeLa miR-21 FLuc reporter, luciferase, 48 h; active = well fitted rising curve with a large enough effect; inconclusive = small, poorly fitted or top-dose-only effect; inactive = no such curve, though single readings can be large or run the other way;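 further: % of control where 0% means no effect; miR-21 action dims this reporter so a rising signal means less miR-21 action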
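HeLa cells endogenously expressing miR-21, stably carrying CMV-driven firefly luciferase with a downstream miR-21 binding site, 2000 cells/well. Titrations up to approximately 40 uM, 48 hours; luciferase luminescence read.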
Rango dissoc inh – inhibition of RanGTP-driven Rango-importin beta dissociation | Biochemical FRET Rango-importin beta, RanGTP-induced dissociation | Potency, µM (titrated, usually from 46.1 µM), without a hit: at the highest dose activity change, negative = inhibition | 340,000 tested, 0.071% active; active means falling FRET ratio curve, often poorly fitted, with flat reads before Ran was added; inconclusive means other falling curves, or compound fluorescence or quenching; inactive means flat or rising ratio curve;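 further: potency means the concentration at half of the fitted maximal effect; % of control where 0% means no effect; nearly all actives have a fitted effect of over 45% in size; -100% = wells without RanGTP and RCC1; the record marks most hits as doubtful in a second field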
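Rango (0.1 uM)–importin beta (0.25 uM) complex; RanGTP-RCC1 trigger; 45 min RT; CFP/YFP FRET read.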
Starred values were filed as active, the others as inactive; u = inconclusive; x = no result given; & = joins results of further samples; [ ] = another dose, or the depositor's remark. A portion of the library; rates above refer to the full screens.

Order of results – Rango-impB inh	GLA inh pH 4.5	miR-21 reporter	Rango dissoc inh
- Cn1nnnc1SC(C(=O)Nc1ccc(F)cc1)c1ccccc1 (stereo not drawn)
 : -2.9%	1	1%	2%
- CC(=O)N(C)c1ccc(NC(=O)Nc2ccc(Cl)cc2)cc1
 : 3.8%	x	x	2%
- Cn1c(=O)c(-c2ccccc2N)nc2ccccc21
 : 2.5%	-11	-10%	-1%
- O=C(c1ccccc1)N1CCN(c2ccc(Cl)cc2)CC1
 : -0.2%	-13	-16%	9%
- CCNc1ccc(S(N)(=O)=O)cc1[N+](=O)[O-]
 : 1.2%	5	-8%	-4%
- CC(=O)n1nc(-c2ccco2)nc1N
 : 4.7%	-19	-1%	-3%
- COC(=O)c1ccc2nc(C)c(C)nc2c1
 : -2.6%	-4	-6%	-12%
- CC(=O)c1ccc(NC(=O)CCNC(=O)c2ccccc2Cl)cc1
 : 11%	x	0%	-9%
- CCn1c2ccccc2c2nnc(SCC(=O)N3CC(C)OC(C)C3)nc21 (stereo not drawn)
 : u	-9	-9%	7%
- O=C(O/N=C1/CCSc2ccccc21)c1ccccc1
 : -3.6%	-3	-1%	2%
- Cc1ccc(CN2CCN(Cc3cccn3-c3ccc(Cl)cn3)CC2CCO)o1 (stereo not drawn)
 : 1.8%	2	-2%	-13%
- Cc1c(Cl)cccc1N(CC(=O)NC1CCCCC1)S(C)(=O)=O
 : 4.9%	2	-1%	4%
- O=C(NCCO)/C(=C/c1cccc([N+](=O)[O-])c1)NC(=O)c1ccco1
 : -2.1%	10	-3%	20%
- Cc1c(Cl)cccc1NC(=S)NCc1ccc(Cl)cc1
 : 2.5%	x	x	1%
- CCOc1ccc(-c2ccc(SCC(=O)Nc3nnc(CC)s3)nn2)cc1
 : 1.0%	1	-44%	0%
- CCCCC(=O)NN(C)c1nc(-c2ccccc2)nnc1C(F)(F)F
 : 4.7%	-12	-7%	-6%
- COC(=O)C1=[N+]([O-])OC(C(=O)OC)C1c1c[nH]c2ccccc12 (stereo not drawn)
 : 2.9%	1	-8%	3%
- COc1ccccc1C(=O)Nc1ccnn1C1CCN(Cc2ncc[nH]2)CC1
 : 0.1%	x	-7%	-9%
- CCOC(=O)CN1C(=O)/C(=C/c2ccc(Cl)cc2)Oc2ccccc21
 : 2.9%	x	-4%	-1%
- O=C(CNS(=O)(=O)c1cccs1)N1CCN(c2ccccn2)CC1
 : 0.2%	-24	-5%	0%
- CCS(=O)(=O)c1ccc2oc(Nc3ccccc3C)nc2c1
 : -2.4%	0	-58%	1%
- COc1cc(OC)c(OC)cc1CNCCSc1nnnn1C
 : -1.0%	8	0%	-12%
- COC(=O)[C@H](Cc1ccccc1)NC(=O)[C@@]1(C)C[C@@H]1[C@@H](NC(=O)OCc1ccccc1)c1ccccc1
 : -3.1%	-35&-7	-9%	12%
- O=C(COC(=O)c1ccc2c(c1)OCO2)NCc1ccc(Cl)cc1
 : 0.9%	-2	-2%	-6%
- O=C(NCCc1ccc(O)c(O)c1)C1COc2ccccc2O1 (stereo not drawn)
 : -0.6%	x	-4%	0%
- CCc1nc(SCc2ccc(F)cc2)[nH]c(=O)c1C#N
 : 1.4%	-3	-6%	-4%
- C[C@]12c3[nH]c4ccccc4c3CCN1C(=O)C(CC(=O)NCCN1CCOCC1)C[C@@H]2C(=O)N1CCCCC1 (stereo partly drawn)
 : -1.8%	x	x	-7%
- Cc1cc(NC(=O)CCC(=O)N(Cc2ccco2)C2(C(=O)NC3CCCCC3)CCN(C)CC2)no1
 : 2.1%	6	-9%	-2%
- O=C(NNC(=O)C12CC3CC(CC(C3)C1)C2)[C@@H]1C[C@H]1c1ccccc1
 : -6.2%	-4	-9%	-7%
- COc1cc([C@H]2c3[nH]c4ccccc4c3C[C@H]3C(=O)N4[C@@H](c5cc(OC)c(OC)c(OC)c5)c5[nH]c6ccccc6c5C[C@H]4C(=O)N23)cc(OC)c1OC
 : u	-4	14%	u

For convenience, part of the list above.
Order of results – Rango-impB inh	GLA inh pH 4.5	miR-21 reporter	Rango dissoc inh
- O=C(O/N=C1/CCSc2ccccc21)c1ccccc1
 : -3.6%	-3	-1%	2%
- Cc1ccc(CN2CCN(Cc3cccn3-c3ccc(Cl)cn3)CC2CCO)o1 (stereo not drawn)
 : 1.8%	2	-2%	-13%
- Cc1c(Cl)cccc1N(CC(=O)NC1CCCCC1)S(C)(=O)=O
 : 4.9%	2	-1%	4%

The main list resumes, repeating the 2 entries before the break.
Order of results – Rango-impB inh	GLA inh pH 4.5	miR-21 reporter	Rango dissoc inh
- O=C(NNC(=O)C12CC3CC(CC(C3)C1)C2)[C@@H]1C[C@H]1c1ccccc1
 : -6.2%	-4	-9%	-7%
- COc1cc([C@H]2c3[nH]c4ccccc4c3C[C@H]3C(=O)N4[C@@H](c5cc(OC)c(OC)c(OC)c5)c5[nH]c6ccccc6c5C[C@H]4C(=O)N23)cc(OC)c1OC
 : u	-4	14%	u
- Cc1cccn2c(=O)c3cc(C#N)c(=N)n(Cc4cccnc4)c3nc12
 : u	x	x	u
- O=C(CSc1n[nH]c(=O)n1-c1ccccc1)Nc1ccccc1C(F)(F)F
 : 3.9%	x	2%	5%
- COc1cccc(CC2(CO)CCN(CC3=CC[C@H]4C[C@@H]3C4(C)C)CC2)c1
 : -1.7%	9	1%	-13%
- CN(C)S(=O)(=O)c1ccc(NC(=O)c2ccc([N+](=O)[O-])cc2)cc1
 : -0.9%	2	4%	0%
- CCC1(c2ccccc2)NC(=O)N(CC(=O)N(C)CC(=O)Nc2cccc(OC)c2)C1=O (stereo not drawn)
 : 0.1%	x	x	5%
- Fc1ccc(C2CC(c3ccccc3)Nc3ncnn32)cc1 (stereo not drawn)
 : -3.4%	-1	-1%	-11%
- CCOC(=O)c1c(NC(=O)CN2C(=O)NC3(CCC(C)CC3)C2=O)sc(C)c1-c1ccc(C)cc1 (stereo not drawn)
 : 5.1%	6	-8%	-9%
- COc1ccc(CCNC(=O)Cn2c(=O)cnc3ccccc32)cc1
 : -1.8%	4	22%	7%
- CCOC(=O)c1c(CSc2nc(C)cc(C)c2C#N)n(C)c2cc(Br)c(OC(C)=O)cc12
 : -5.7%	0	-7%	4%
- O=C(Nc1ccc(-n2cnnn2)cc1)c1cccc(S(=O)(=O)N2CCCC2)c1
 : 1.9%	x	x	-2%
- C/C(=N\NC(=O)C(O)c1ccccc1)c1ccc(Br)s1 (stereo not drawn)
 : 0.3%	x	-4%	0%
- Cc1cc(C(=O)Nc2c(F)cc(F)cc2Br)n(-c2ccccc2)n1
 : -1.9%	x	-11%	8%
- Cc1ccc(C(=O)COC(=O)c2ccco2)cc1C
 : 5.9%	x	-19%	u
- CCC(C(=O)OCC(=O)NC(=O)c1ccccc1)c1ccccc1 (stereo not drawn)
 : -0.1%	x	x	-7%
- Cc1cc(NC(=O)c2ccc([N+](=O)[O-])cc2)n(C)n1
 : 4.0%	1	-9%	-4%
- CCCCSCCCNC(=O)c1ccc(CS(=O)(=O)c2ccccc2OC)o1
 : -0.9%	x	0%	0%
- CCC(C)Sc1ccc([C@H]2N[C@@](Cc3ccccc3)(C(=O)OC)[C@H]3C(=O)N(C)C(=O)[C@@H]23)cc1 (stereo partly drawn)
 : -0.3%	x	x	8%
- Cc1cc(C)cc(C(=O)Nc2nc3ccccc3[nH]2)c1
 : 2.8%	x	-22%	0%
- COC(=O)c1cn(Cc2cccnc2)c(=O)c2ccccc12
 : 3.9%	-10	-11%	-6%
- CC(=O)OCC#CCSc1nc2ccccc2n1C
 : -1.6%	4	-20%	4%
- O=C(CSC1CC(=O)N(c2ccc(C(=O)O)cc2)C1=O)Nc1ccc(Cl)cc1 (stereo not drawn)
 : 2.5%	3	0%	7%
- Cc1onc(-c2ccccc2Cl)c1C(=O)OCc1nnc(-c2ccccc2)o1
 : -3.9%	x	x	-3%
- Cc1cccc(NC(=O)c2ccc3c(c2)C(=O)N(c2ccccc2C)C3=O)n1
 : -3.0%	x	x	2%
- CCC(=O)Nc1nc2c(c(=O)[nH]1)CCCC2
 : 0.3%	5	-2%	3%
- CC(C(=O)N1CCOCCOCCOCCOCCOCC1)N1C(=O)c2ccccc2C1=O (stereo not drawn)
 : -1.0%	6	5%	-2%
- Cc1cc2c(cc1S(=O)(=O)N(C)C1CCCCC1)OCC(=O)N2
 : -1.4%	x	7%	32%
- CC1CCN(S(=O)(=O)c2ccc3nc(-c4ccccn4)cc(C(=O)NCCN(C)Cc4ccccc4)c3c2)CC1
 : -1.0%	0	0%	2%
- Cc1ccc(OCC(=O)Oc2ccc(C(C)C)cc2)cc1
 : 6.6%	x	0%	3%
- COCCC(=O)N1CCC(Oc2ccc(C(=O)N3CCCCC3CCO)cc2)CC1 (stereo not drawn)
 : -1.8%	x	-6%	1%
- COc1cccc(CNC(=O)CCC2CCCN(Cc3cc4ccccc4o3)C2)c1 (stereo not drawn)
 : -0.8%	-3	3%	1%
- Cc1ccc(NC(=S)N(CCCN2CCCC2)Cc2cccn2Cc2ccc(Cl)cc2)cc1
 : -0.6%	-13[21.1 µM]	-1%	19%
- CC(=O)c1c(C)[nH]c(C(=O)OCc2ccc(F)cc2Cl)c1C
 : -0.1%	-2	-2%	-4%
- COc1cc2c(cc1OC)C(C(=O)Nc1ccc3c(c1)OCCO3)C1c3ccccc3CCN1C2=O (stereo not drawn)
 : -4.3%	2	-13%	-18%
- O=C(CSc1nccn1-c1ccc(F)cc1)Nc1ccc2c(c1)OCO2
 : 0.0%	3	-15%	1%
- CC(C)(CO)Nc1nc(Nc2ccccc2)nc(Nc2ccccc2)n1
 : 2.4%	-6	0%	0%
- O=C(Nc1ccc2c(c1)CCCN2C(=O)c1ccco1)c1cc([N+](=O)[O-])ccc1Cl
 : 2.5%	x	x	13%
- O=C(Nc1ccccc1N1CCOCC1)c1cccnc1Cl
 : 8.6%	8	1%	-16%
- O=C(Oc1ccc2c(c1)OCO2)c1ccncc1
 : -0.4%	6	-15%	2%
- CN(C)c1ccc([C@@H]2[C@@H]([N+](=O)[O-])[C@H]3C=Cc4ccccc4N3[C@H]2C(=O)c2ccc(Cl)cc2)cc1
 : u	-4	-3%	u
- CCC1=C(c2ccc(OC)cc2)CCC(C(=O)O)C1C (stereo not drawn)
 : -0.5%	x	x	-10%
- NS(=O)(=O)c1ccc(CCNC(=O)c2cc(-c3ccccn3)nc3ccc(Br)cc23)cc1
 : -0.6%	3	1%	-7%
- O=C(c1cccs1)N1CCC(c2nc3c(nnn3Cc3c(Cl)cccc3Cl)c(=O)[nH]2)CC1
 : -4.1%	x	-1%	-5%
- CC(C(=O)NC(=O)NC1CCCCC1)N1CCN(c2ccc(O)cc2)CC1 (stereo not drawn)
 : 0.8%	x	x	3%
- CC(=O)NC(CCS(C)(=O)=O)C(=O)Nc1c(C)cccc1C (stereo not drawn)
 : 0.1%	-4	-14%	9%
- CN1CCN(c2c([N+](=O)[O-])cnc3ccccc23)CC1
 : -0.8%	x	x	-1%
- O=C(CN1CC(=O)Oc2ccccc21)OCC(=O)c1cccc(Br)c1
 : -1.0%	2	-15%	-14%
- COc1cc(OC)cc(C(=O)NNC(=O)CNC(=O)c2cccs2)c1
 : 2.2%	x	x	-14%
- Cc1ccc(Nc2nnc(SCC(=O)Nc3cc(C(=O)O)ccc3C)s2)c(C)c1
 : 0.2%	-3	-1%	-7%
- Cc1cccc(C(=O)N[C@H](C(=O)Nc2nccs2)C(C)C)c1
 : 2.6%	2	1%	5%
- CCOc1ccc(Cc2nn[nH]n2)cc1
 : 4.2%	-2	-1%	17%
- Cc1ccc(OCc2cc(C(=O)N(C)CC3CCOCC3)no2)cc1C
 : 0.1%	x	-39%	-8%
- CCN(CC)c1ccc(NC(=O)C2CC(=O)N(Cc3ccccc3)C2)cc1 (stereo not drawn)
 : -5.7%	3	2%	-2%
- Cc1ccc(C(=O)CN2C(=O)NC3(CCc4ccccc43)C2=O)c(C)c1 (stereo not drawn)
 : -0.4%	x	x	2%
- CCOc1cccc2sc(N3CCN(C(=O)c4ccc5ncsc5c4)CC3)nc12
 : 1.3%	x	x	11%
- Cc1ccccc1OCCN1C(=O)NC2(CCc3ccccc32)C1=O (stereo not drawn)
 : 0.7%	0	-6%	-8%
- Cc1csc2ncnc(N3CCN(S(=O)(=O)c4cccc(C(F)(F)F)c4)CC3)c12
 : -0.2%	x	4%	-4%
- CC1C(=O)C(C)C(c2cc(Br)ccc2O)NC1c1cc(Br)ccc1O (stereo not drawn)
 : -5.7%	x	x	-4%
